High-throughput results as filed in PubChem BioAssay.
HTT promoter inh = inhibits huntingtin promoter activity; HEK293 HTT promoter firefly luciferase reporter (activity 0% = vehicle and -100% = no light), 24 h; Potency, µM (doses to about 57.5 µM), for inactives: at the top dose activity change, negative = inhibition, actives largely listed as inhibitors; 48,000 tested, 0.93% active; AID 1508623; active means well fitted inhibition curve with a large enough effect; inconclusive means small, poorly fitted or top-dose-only effect; inactive means no such curve, though single readings can be large or run the other way; further: nearly all actives have a fitted effect of over 50% in size
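Quantitative HTS used concentration series of up to 57.5 uM final on HEK293 luciferase reporter cells, 24 h at 37 degrees C. Readout was Dual-Glo firefly luminescence.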
PMP22 txn = modulators of PMP22 gene transcription in S16 Schwann cells. S16 Pmp22-F2sN Schwann cells (luciferase reporters placed in the Pmp22 gene), FLuc/NLuc coincidence luminescence, 24 h. Potency, µM (titrated, usually from 57.5 µM), for inactives: at the top dose activity change, negative = inhibition, actives largely listed as inhibitors. 43,000 tested, 2% active. AID 1508649; active = clear falling dose curves in both reporters; inconclusive = both reporters move, but less clearly or upward; inactive = either reporter flat; the % is the NLuc reporter signal; further: on the % scale 0 is the no-effect control and ±100 the full control effect; some results filed as inactive show a strong effect at the top dose
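qHTS, 1536-well. Cells seeded, compounds added by pin tool, 24 h 37C. Nano-Glo reagent 1 (lysis/FLuc), 10 min RT, read; Stop&Glo, 10 min RT, read NLuc.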
An asterisk follows results filed as active; ? = inconclusive; . = no result given; [ ] = another dose, or the depositor's remark. Potency means the concentration at half of the fitted maximal effect.

SMILES	HTT promoter inh	PMP22 txn
CC(C)OCCCNC(=O)Cc1ccc(NC(=O)N2CCCCc3ccccc32)cc1	-14.9%	-23.7%
Cc1ccc(Cl)cc1N1CCN(C(=O)c2ccc3c(c2)N(Cc2ccccc2)CCS3)CC1	-7.2%	?
Cc1ccc(Cn2c(C(=O)O)c(CNCCc3cccs3)c3ccc(C)cc32)cc1	-12.4%	?
CCOc1cc(-c2nnc(SCC(=O)NC3CCCC3)nc2-c2ccc(OC)c(OCC)c2)ccc1OC	-13.8%	-20.9%
Cc1ccc(NC(=O)Cn2cnc3c2c(=O)n(C)c(=O)n3C)cc1C	-6.0%	-11.8%
COc1ccc(CCN2C(=O)N(c3cccc(OC)c3)C(=O)C2CC(=O)Nc2ccccc2)cc1 (stereo unspecified)	?	5.1%
CCOC(=O)c1ccc(NC(=O)C(Cc2ccccc2)N2Cc3ccccc3C2=O)cc1 (stereo unspecified)	-10.6%	9.8%
CCc1ccc(NC(=O)CN2C(=O)C3CCCN3c3ccc(S(=O)(=O)N(CC)CC)cc32)cc1 (stereo unspecified)	-20.1%	?
CCOc1cc(/C=C(\C#N)C(=O)Nc2ccc(OC)cc2)ccc1OCc1cc(=O)n2nc(CC)sc2n1	-1.7%	-33.2%
CC(C)(C)CC(=O)NCC(c1ccc2c(c1)OCO2)N1CCOCC1 (stereo unspecified)	-15.4%	23.5%
O=C(CSc1cn(CCNC(=O)c2cccc(C(F)(F)F)c2)c2ccccc12)Nc1ccc2c(c1)OCCO2	?	?
CCS(=O)(=O)c1cccc(C(=O)N2CCN(c3nc4c(C)ccc(Cl)c4s3)CC2)c1	11.2µM*	?
CCCN1C(=O)C2(c3ccccc31)c1c(oc3ccccc3c1=O)C(=O)N2CCCOC(C)C (stereo unspecified)	-16.5%	-0.7%
COc1cccc(CNC(=O)Cn2c(SCC(=O)Nc3ccc(F)cc3)nc3ccccc32)c1	?	?
Cc1nc(-c2ccc(S(=O)(=O)Nc3cc(Cl)ccc3C)cc2)co1	-25.8%	-28.6%
CCN(C(=O)c1cc(S(=O)(=O)N2CCOCC2)cn1C)c1ccc(OC)cc1	11.7%	-6.6%
COc1ccc(C)cc1NC(=O)C(NS(=O)(=O)c1cccs1)c1ccccc1 (stereo unspecified)	-25.0%	?
O=C(Nc1ccc2oc(-c3ccc(O)c(Br)c3)nc2c1)c1cc2ccccc2o1	26.0%	-14.0%
CC1=C(C(=O)OC2CCCC2)C(c2cccc(Cl)c2Cl)CC(=O)N1 (stereo unspecified)	?	?
CC1=C(C(=O)Nc2ccccc2Cl)C(c2cccs2)n2ncnc2N1 (stereo unspecified)	-11.7%	5.0%
CCOc1ccc(S(=O)(=O)Nc2ccc3c(c2)CCCN3C(=O)c2cccs2)cc1	?	?
Cc1ccc(Cl)cc1N1CCN(C(=O)C2CCN(S(=O)(=O)c3ccc4c(c3)oc(=O)n4C)CC2)CC1	?	?
COc1cccc(N2CCN(C(=O)Cn3ncc4c(=O)oc5ccccc5c43)CC2)c1	-4.0%	-13.2%
Cc1ccccc1Nc1c(-c2cc(Br)ccc2F)nc2ccccn12	-0.7%	?
COc1ccc(S(=O)(=O)NC2(C(F)(F)F)NC(=O)N(CCc3ccc(OC)c(OC)c3)C2=O)cc1 (stereo unspecified)	-8.1%	3.0%

Next section
SMILES	HTT promoter inh	PMP22 txn
Cc1ccccc1NC(=O)Cn1c(=O)n(CCC(=O)NCc2ccc3c(c2)OCO3)c(=O)c2sccc21	-11.6%	6.4%
CCCNC(=O)Cn1nc(-c2ccc(C)cc2)c2cnc3ccc(CC)cc3c21	-0.3%	18.9%
COc1ccccc1Nc1ncnc2scc(-c3ccc(F)cc3)c12	?	17.8µM*
CCOC(=O)C1CCCN(C(=O)c2ccc3c(c2)N(Cc2ccccc2F)C(=O)c2ccccc2S3=O)C1 (stereo unspecified)	-5.5%	-17.8%
CC(C)Cn1cc(NC(=O)NCc2cccc(Cl)c2)c2ccccc2c1=O	-18.8%	-0.9%
Cc1oc(C)c2c(=O)cc(-c3ccc4c(c3)OCO4)cc(OC(=O)c3ccccc3Br)c12	-26.8%	?
Cc1cccc(/C=C(\C#N)c2nc3ccccc3c(=O)[nH]2)c1	-4.6%	11.2µM*
Cc1c(-c2cccc(NC(=O)Nc3ccccc3)c2)nc2ncccn12	9.7%	-52.6%
O=C(CSc1nnc(-c2ccc(Cl)cc2)c(-c2ccc(Cl)cc2)n1)NC1CCCC1	-8.3%	?
CCOc1cc(C(=O)Nc2ccc3c(c2)n(C)c(=O)c(=O)n3C)cc(OCC)c1OCC	-3.1%	-26.2%
CCCCn1c(=N)c(S(=O)(=O)c2ccc(C)cc2)cc2c(=O)n3cc(C)ccc3nc21	1.4%	-19.1%
Cc1ccc(C)c(N2CCN(CCCNC(=O)c3nnc(Cc4ccc(F)cc4Cl)o3)CC2)c1	?	?
COc1ccc(S(=O)(=O)c2c(O)c3ccc(C(=O)NCc4ccccc4)cc3[nH]c2=O)cc1	-9.9%	10.3%
CC(=O)c1ccc(NC(=O)C2CCC(CNS(=O)(=O)c3ccc(Br)s3)CC2)cc1 (stereo unspecified)	-2.4%	-6.2%
COc1ccc(CN(Cc2ccco2)c2cnc(S(C)(=O)=O)nc2C(=O)Nc2ccc(C)cc2C)cc1	?	4.6%
COc1ccccc1NC(=O)c1oc2ccccc2c1NC(=O)Cc1ccccc1	-15.5%	-2.5%
CSc1ncc(C(=O)Nc2ccccc2C(=O)c2ccccc2)c(C)n1	15.5%	-0.8%
O=C(CCS(=O)(=O)c1cc(Br)cc2c1N(C(=O)C1CC1)CC2)NCc1ccc(Cl)cc1	-28.7%	?
Cc1cccc(NC(=O)CSc2nc3ccccc3nc2N2CCC(C)CC2)c1	-11.9%	?
COc1ccc(S(=O)(=O)NCc2ccc3c(c2)CCN3C(=O)c2ccc(C)cc2)cc1Cl	?	?
Cc1c(Cl)cccc1NC(=O)Cn1nnc(-c2nc(-c3ccccc3)no2)c1N	8.1%	-4.9%
COc1ccc2c(c1)c1c(c(=O)n(Cc3ccccc3)c(=O)n1Cc1cccc(Cl)c1)n2C	-10.7%	-24.2%
COc1ccc(C)cc1NC(=O)C1CCN(S(=O)(=O)c2ccc3c(c2)CCCN3C(C)=O)CC1	14.4%	4.7%
Cc1ccccc1CN1CCc2nc(N3CCN(c4ccccn4)CC3)ncc2C1	?	-31.2%
O=S(=O)(Nc1cccc(F)c1)c1ccc2[nH]c3c(c2c1)CCCCC3	?	?

The list goes on.
SMILES	HTT promoter inh	PMP22 txn
CCC(CC)c1nn2c(=O)cc(COc3ccc(NC(=O)c4ccc(Cl)cc4)cc3)nc2s1	-5.6%	2.3%
CCc1ccc2c(c1)c(=O)c(S(=O)(=O)c1ccccc1)cn2CC(=O)Nc1cc(C)ccc1C	-17.8%	-20.5%
CCC(CC)C(=O)Nc1cccc(-c2nc3ncccn3c2C)c1	-0.5%	12.6%
COc1ccc(OC)c(CNC(=O)NCc2noc3ccc(C)cc23)c1	-13.0%	-12.4%
CCCCn1c(CCNC(=O)c2ccc(F)cc2)nc2ccccc21	-15.8%	-27.2%
COc1cccc(-c2cn3c(n2)sc2cc(C(=O)NCc4ccccc4F)ccc23)c1	4.0%	13.5%
Cc1nc(SCC(=O)Nc2ccc(C)c(Cl)c2)cc(-c2ccccc2)n1	-18.1%	-1.8%
Cn1c(=O)cc(SCC(=O)NCc2ccc(F)cc2)c2cc(Cl)ccc21	-10.7%	-23.5%
CCOc1ccc(C(=O)c2cn(CC(=O)Nc3ccc(C)c(C)c3)c3ccc(OCC)cc3c2=O)cc1	-24.2%	-32.9%
COc1ccc(CN(C(=O)Nc2cccc(Cl)c2)c2ccccn2)cc1OC	-8.3%	1.3%
Cc1cc(C)c(S(=O)(=O)Nc2ccc3oc(C)c(C(=O)OC(C)C)c3c2)cc1C	?	?
CCOC(=O)c1ccc(NC(=O)c2cnn(-c3ccc(C)cc3C)c2C2CCN(C(=O)OC(C)(C)C)CC2)cc1	?	?
COc1cccc(NC(=O)CSc2nnc(-c3cccs3)o2)c1	71.1%[activator]	11.9%
Cc1ccc(C(=O)c2sc(Nc3ccccc3F)c(S(=O)(=O)c3ccccc3)c2N)c(C)c1	?	-20.7%
COc1ccccc1CNS(=O)(=O)c1c(C)nc2sccn2c1=O	1.0%	6.7%
O=c1c(N2CCc3ccccc3C2)csc2ccc(Br)cc12	11.0%	-23.5%
CCCCCCn1nnc2sc(-c3ccccc3)cc2c1=O	16.6%	-3.2%
Cc1ccc(-n2c(=O)c3oc4ccccc4c3n(CC(=O)Nc3ccccc3)c2=O)cc1C	-29.9%	-0.1%
COc1ccc(Cl)cc1NC(=O)CCCN1C(=O)C(c2ccccc2)Oc2cccnc21 (stereo unspecified)	?	?
CCC(=O)N1c2ccccc2CC1C(=O)NCCc1ccccc1OC (stereo unspecified)	-18.7%	5.5%
COC(=O)c1ccc(C2c3c(oc4ccc(C)cc4c3=O)C(=O)N2Cc2ccc3c(c2)OCO3)cc1 (stereo unspecified)	-12.1%	6.0%
CCOC(=O)c1c(NC(=O)C2c3ccccc3Oc3ccccc32)sc(C)c1CC	-19.7%	?
CC(C)CCn1c(SCc2c(F)cccc2Cl)nc2ccsc2c1=O	-7.7%	-7.0%
COc1ccc(N(CC(=O)Nc2ccc(C)c(C)c2)S(=O)(=O)c2ccc(C)cc2)cc1OC	-18.0%	-3.4%
CN(C)CCNC(=O)CCCN1C(=O)c2cccnc2Oc2ccc(Cl)cc21	11.9%	-11.0%

In the list so far, 3 have an NH in an aromatic ring.
SMILES	HTT promoter inh	PMP22 txn
Cc1cccc(/C=C(\C#N)c2nc3ccccc3c(=O)[nH]2)c1	-4.6%	11.2µM*
COc1ccc(S(=O)(=O)c2c(O)c3ccc(C(=O)NCc4ccccc4)cc3[nH]c2=O)cc1	-9.9%	10.3%
O=S(=O)(Nc1cccc(F)c1)c1ccc2[nH]c3c(c2c1)CCCCC3	?	?

Shown as a hit in HTT promoter inh (from the list above):
mol	HTT promoter inh
CCS(=O)(=O)c1cccc(C(=O)N2CCN(c3nc4c(C)ccc(Cl)c4s3)CC2)c1	11.2µM*

Returning to the listing with the two entries that preceded the break.
SMILES	HTT promoter inh	PMP22 txn
COc1ccc(N(CC(=O)Nc2ccc(C)c(C)c2)S(=O)(=O)c2ccc(C)cc2)cc1OC	-18.0%	-3.4%
CN(C)CCNC(=O)CCCN1C(=O)c2cccnc2Oc2ccc(Cl)cc21	11.9%	-11.0%
O=C(Nc1cccc(-c2nc3ccccc3[nH]2)c1)c1c(F)cccc1F	17.9%	-27.6%
CCc1ccc(C(=O)c2cn(Cc3ccc(F)cc3)c3cc(OC)c(OC)cc3c2=O)cc1	?	?
Cc1ccc(NC(=O)c2ccc3c(O)c(S(=O)(=O)c4ccccc4)c(=O)[nH]c3c2)cc1Cl	-8.6%	-27.0%
CCOc1ccc(CNS(=O)(=O)c2c(C(=O)N3CCC(C)CC3)c(C)n(C)c2C)cc1OC	-6.9%	?
Cc1ccc(C)c(NC(=O)Cn2c(=O)n(Cc3ccco3)c(=O)c3oc4ccccc4c32)c1	4.9%	11.9µM*
CCC(=O)Nc1ccc(O)cc1	-5.4%	.
CC(C)c1nn2c(=O)cc(COC(=O)c3ccc4c(c3)OCO4)nc2s1	-1.0%	-11.1%
CCC(=O)Nc1ccc(C)cc1-c1nc2ccccc2n(CC(=O)c2ccc(C)cc2)c1=O	1.6%	?
CC1CN(C(=O)N2CCC(C(=O)NCCC3=CCCCC3)CC2)c2cc(Cl)ccc2O1 (stereo unspecified)	?	?
Cc1ccc(-n2nnnc2CNC(=O)C(C)(C)C)cc1C	5.9%	20.9%
Cc1ccc2onc(CNC(=O)N(C)Cc3ccccc3)c2c1	-2.6%	2.2%
Cc1cccc(-c2nc3c4ccccc4nc(N4CCN(c5cccc(Cl)c5)CC4)n3n2)c1	5.0%	-8.9%
O=C(CS(=O)(=O)c1cccc2nsnc12)N1CCN(c2cccc(C(F)(F)F)c2)CC1	-28.1%	?
Cc1ccc2nc(-c3cccc(NC(=O)c4cccc5c(Cl)cccc45)c3)oc2c1	-7.2%	-32.0%
CCOc1cccc(C2c3c(oc4ccccc4c3=O)C(=O)N2c2nc(C)c(C(=O)OC)s2)c1 (stereo unspecified)	-19.6%[11.5 µM]	-3.1%
COc1ccc(-c2cc(C(F)(F)F)nc(SCC(=O)N(C)Cc3ccccc3)n2)cc1	?	?
C[C@H]1COc2c(C3(N)CC3)c(F)cc3c(=O)c(C(=O)O)cn1c23	2.2%	.
CC(C)(C)OC(=O)N1CCC(c2c(C(=O)N3CCN(C(=O)c4ccco4)CC3)cnn2-c2ccc(Cl)cc2)CC1	4.8%	-12.4%
Cc1nc(N2CCCC2)ncc1C(=O)NCc1ccc(Cl)cc1	-17.0%	0.7%
O=C(Cn1ccc2cc(S(=O)(=O)N3CCCCC3)ccc21)NCc1ccccc1Cl	?	?
CCc1nc2c(cnn2-c2ccc(Cl)cc2)c(=O)n1-c1ccc(OC)c(Cl)c1	-9.6%	2.8%
O=C(NCc1ccccc1)NC1COc2ccccc2C1 (stereo unspecified)	9.9%	-35.1%
Cc1ccc(CNC(=O)CN(c2cccc(C)c2C)S(=O)(=O)c2ccccc2)cc1	?	?
CC(C)OCCCn1c(=O)c2ccccc2n2c(-c3cc(Cl)ccc3O)nnc12	-14.1%	-21.2%
CC(=O)Nc1c(I)cc(I)c(C(=O)O)c1I	-2.0%	.
